KCNQ2 pot = potentiators of rat KCNQ2 potassium channel; CHO-K1 KCNQ2, FluxOR thallium flux fluorescence; hits give high values; B-score at 10 µM; hit rate 0.54% among 310,000;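 active = fluorescence ratio B-score at least 3 SD of library B-scores, with initial fluorescence B-score within 3 SD, cut at about 5.3 in these data; same plate scores as AID 2156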;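 note: B-score of peak minus minimum over baseline fluorescence ratio after K+ and Tl+ stimulus; positive B-score means potentiation of KCNQ2 with more thallium influx and brighter signal; only the inactives scoring about 0 or higher are listed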
Target sequence (O88943 whole entry, looked up): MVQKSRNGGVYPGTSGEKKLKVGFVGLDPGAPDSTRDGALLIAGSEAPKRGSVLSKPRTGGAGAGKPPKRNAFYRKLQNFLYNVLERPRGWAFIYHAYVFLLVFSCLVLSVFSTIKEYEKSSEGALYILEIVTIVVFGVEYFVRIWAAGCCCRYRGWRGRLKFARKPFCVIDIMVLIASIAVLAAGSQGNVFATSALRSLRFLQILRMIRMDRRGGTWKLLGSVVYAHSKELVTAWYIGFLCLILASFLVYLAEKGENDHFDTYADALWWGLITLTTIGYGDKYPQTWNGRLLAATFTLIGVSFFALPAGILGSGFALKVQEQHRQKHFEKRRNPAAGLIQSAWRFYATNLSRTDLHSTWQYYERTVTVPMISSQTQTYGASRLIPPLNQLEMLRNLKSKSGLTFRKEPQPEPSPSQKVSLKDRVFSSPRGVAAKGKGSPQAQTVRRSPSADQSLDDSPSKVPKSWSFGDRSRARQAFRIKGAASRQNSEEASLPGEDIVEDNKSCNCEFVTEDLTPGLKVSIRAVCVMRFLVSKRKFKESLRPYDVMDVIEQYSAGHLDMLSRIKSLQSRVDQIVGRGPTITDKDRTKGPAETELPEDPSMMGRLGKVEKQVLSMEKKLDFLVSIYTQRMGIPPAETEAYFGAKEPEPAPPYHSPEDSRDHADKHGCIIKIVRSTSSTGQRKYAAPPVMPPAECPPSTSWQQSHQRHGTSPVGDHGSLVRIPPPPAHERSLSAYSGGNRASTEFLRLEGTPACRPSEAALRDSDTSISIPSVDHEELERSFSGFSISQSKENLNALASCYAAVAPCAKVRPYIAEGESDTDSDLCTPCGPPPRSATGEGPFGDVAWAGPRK
KCNQ2 pot baseline = also measured in KCNQ2 pot; calls as there; B-score; compound at 10 µM; measured here: initial fluorescence intensity artifact check;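 brightness before thallium and not channel activity; 0 = typical well and far values either way flag optical interference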
* hit, by the source's call. An excerpt, so the mix of outcomes need not match the whole.

SMILES | KCNQ2 pot | KCNQ2 pot baseline
O=C(NCc1cc(C(F)(F)F)cc(C(F)(F)F)c1)C1CC(c2ccccc2[N+](=O)[O-])=NO1 (centres undefined) | 1.49 | -1.55
Cc1c(OC(C)C(=O)NCC(O)c2ccccc2)ccc2c3c(c(=O)oc12)CCC3 (centres undefined) | 0.38 | -0.96
COCC(=O)NCCc1nc2ccccc2[nH]1 | 0.89 | -0.07
COc1ccc(/C=C(\NC(=O)c2ccccc2)C(=O)N2CCN(C)CC2)cc1OC | 0.01 | -1.39
CCOC(=O)C1=C(C)NC(=S)N(C(C)=O)C1c1ccc(OC)c(OC)c1 (centres undefined) | 1.94 | 0.19
CC1(C)Cc2nc(NC3CCCCC3)c(C#N)cc2CO1 | 1.06 | 1.06
NS(=O)(=O)c1ccc(CCNC(=O)CCCCCNc2nc(=S)[nH]c3ccccc23)cc1 | 0.56 | 1.31
CCOC(=O)C1C(=O)OC(C)(C)C1C(CC)C(=O)c1ccccc1 (centres undefined) | 0.64 | 1.27
NN=C1c2cc([N+](=O)[O-])ccc2-c2ccc([N+](=O)[O-])cc21 | 0.99 | 0.36
Cc1nc2scc(-c3ccccc3)c2c(=O)o1 | 0.02 | -0.57
O=C(Nc1cccc(C(=O)Nc2ccccc2F)c1)c1ccccc1 | 2.53 | -0.82
Cc1cc(=O)[nH]c(N/N=C/c2c(C)nn(-c3ccccc3)c2C)n1 | 0.58 | -0.25
O=c1[nH]nc(-c2ccc(NCCO)c([N+](=O)[O-])c2)c2ccccc12 | 0.76 | 0
C=CCOc1ccc(C2NC(=O)c3ccccc3O2)cc1 (centres undefined) | 0.79 | -1.68
Cc1cc(F)c(F)c(C(=O)N2CCN(C)CC2)c1Cl | 1.3 | -0.8
Cc1ccc(OCCC(=O)OCC(=O)NC2CCS(=O)(=O)C2)cc1 (centres undefined) | 0.44 | 0.92
NC1=NC2(CCCCC2)N(c2ccc(F)cc2)C(N)=N1 | 0.71 | 0.59
Cc1cccc(CCNC(=O)C2CCCN(S(=O)(=O)c3cnc[nH]3)C2)c1 (centres undefined) | 0.51 | -0.62
CCOC(=O)CNC(=O)Cn1cnc2c(oc3ccccc32)c1=O | 1.64 | -0.28
COc1ccc(C(=O)C2CCCN(Cc3cn(C)nc3-c3ccccc3)C2)cc1F (centres undefined) | 1.26 | -0.33
O=C(C1CCN(c2ncnc3c2sc2cccc(F)c23)CC1)N1CCCC1 | 1.54 | -0.16
Cc1ccn(CC(=O)N2CCCC(N3CCN(Cc4ccc5c(c4)OCO5)CC3)C2)n1 (centres undefined) | 0.73 | -0.03
O=C(CCCN1C(=O)/C(=C\c2ccco2)SC1=S)Nc1cccc2ccccc12 | 0.06 | -0.44
O=C(Nc1cc(Cl)cc(Cl)c1)c1ccno1 | 1.86 | -2.18
COc1ccc(C(C(=O)NC2CCCC2)N(CCO)C(=O)Cn2nnc(-c3ccc(C)o3)n2)cc1OC (centres undefined) | 0.87 | 1.72
O=C(CCC(=O)N(CC(=O)NC1CCCCC1)c1ccccc1F)Nc1nccs1 | 2.22 | -2.9
O=C(NNS(=O)(=O)c1ccccc1)C1CC(c2cccnc2)=NO1 (centres undefined) | 0.2 | -2.42
CC(C)c1ccc(C(=O)NCCCN(C)C)cc1 | 0.17 | 2.97
O=C(Nc1cc(SCCO)cc([N+](=O)[O-])c1)c1ccco1 | 0.29 | -2.82
COc1ccccc1NC(=O)c1ccc(S(=O)(=O)NCc2ccco2)cc1 | 0.61 | 0.16
CCC(C(=O)O)N1C(=O)c2ccccc2C1=O (centres undefined) | 0.45 | -0.25
CCC(C)C(NC(=O)c1ccccc1NC(=O)c1ccco1)C(=O)NNC(=O)c1ccncc1 (centres undefined) | 0.81 | 0.29
O=C(c1cccs1)N1CCN(S(=O)(=O)c2ccc(F)cc2)CC1 | 1.1 | -1.32
CCOc1ccc(C(c2c(O)nc(SC)n(C)c2=O)c2c(O)nc(SC)n(C)c2=O)cc1 | 0.1 | -1.63
COc1ccc(CNC(=O)CCCn2nc(C)c([N+](=O)[O-])c2C)cc1 | 0.47 | -0.79
CCCc1cc(=O)[nH]c(SCc2nc3ccc([N+](=O)[O-])cc3[nH]2)n1 | 1.19 | -0.04
CN1C(=O)NC(c2ccc([N+](=O)[O-])cc2)C2=C1CC(C)(C)CC2=O (centres undefined) | 0.96 | 0.53
C=CCN(c1ccccc1)S(=O)(=O)c1cccc(C(=O)NNC(=O)c2ccncc2)c1 | 0.03 | 0.05
O=C1c2ccccc2S(=O)(=O)c2cc(C(=O)N3CCC(C(=O)N4CCCCC4)CC3)ccc21 | 0.68 | 0.39
NS(=O)(=O)c1cccc(NC(=O)CSc2nc3ccccc3c(=O)n2CCCN2CCOCC2)c1 | 0.1 | -1.16
CCCCOP(=O)(c1ccc(N(C)C)cc1)C(O)c1ccc(OC)cc1 (centres undefined) | 0.2 | 1.63
O=S(=O)(c1ccc(Br)s1)N1CCN(c2ccccn2)CC1 | 0.16 | 0.46
CC(=O)c1cccc(N2C(=O)Nc3ccccc3N2O)c1 | 0.07 | -0.31
O=C(COc1cccc(-n2cnnn2)c1)NCCC1=CCCCC1 | 0.01 | -1.02
O=c1nc2n(c3ncccc13)CCCCC2 | 3.36 | -0.16
CCc1ccccc1NC(=O)NCc1ccc2c(c1)OCO2 | 1.39 | 1.95
N=C1SCC(=O)N1c1ccc(Cl)cc1 | 0.4 | 0.07
CC(CC#CCN1CCOCC1)OCCC#N (centres undefined) | 0.17 | 1.3
C/C=C(\C)CN1CCN(c2ccccc2F)CC1 | 1.12 | -0.03
Cc1cc(C(=O)COC(=O)C2=NNC(=O)CC2)c(C)n1-c1ccccc1 | 0.16 | -0.98
Cc1nc2sc(C(c3ccco3)N3CCC(Cc4ccccc4)CC3)c(O)n2n1 (centres undefined) | 0.14 | -0.8
COc1ccc(N(CC(=O)Nc2cccc(C(C)=O)c2)S(=O)(=O)c2ccc(NC(C)=O)cc2)cc1 | 2.61 | -2.28
COc1ccc(CN2CCN(C(=O)C3CCC(CNS(=O)(=O)c4ccc(C)cc4)CC3)CC2)c(OC)c1OC (centres undefined) | 0.04 | -0.44
CCOc1ccc(NC(=O)CSc2ccc3nnc(-c4cccnc4)n3n2)cc1 | 0.88 | -0.2
COc1ccc(CCc2nnc(CCC(=O)N(C)Cc3ccnc4ccccc34)o2)cc1 | 0.61 | 0.13
S=c1[nH]c2ccccc2n1Cc1ccccc1 | 0.35 | -0.31
O=C(CSCCO)Nc1nccs1 | 1.31 | -1.49
CC(=O)Nc1ccc(NC(=O)CNC(=O)c2cccc(C)c2)cc1 | 0.44 | -2.11
CCN1CCc2nc3ccccc3c(C(=O)Nc3ccc(NC(C)=O)cc3)c2C1 | 0.89 | 0.15
CCOC(=O)C1=C(COC(=O)COc2ccccc2OCC)NC(=O)NC1C (centres undefined) | 0.31 | -0.63

One compound at a time, as listed above. Screens in order: KCNQ2 pot	KCNQ2 pot baseline
Record of `O=C(COc1cccc(-n2cnnn2)c1)NCCC1=CCCCC1` = 0.01	-1.02
Record of `O=C(C1CCN(c2ncnc3c2sc2cccc(F)c23)CC1)N1CCCC1` = 1.54	-0.16
Record of `COc1ccc(/C=C(\NC(=O)c2ccccc2)C(=O)N2CCN(C)CC2)cc1OC` = 0.01	-1.39
Record of `O=C(CSCCO)Nc1nccs1` = 1.31	-1.49
Record of `COc1ccc(CN2CCN(C(=O)C3CCC(CNS(=O)(=O)c4ccc(C)cc4)CC3)CC2)c(OC)c1OC` (centres undefined) = 0.04	-0.44

The results go on.
SMILES | KCNQ2 pot | KCNQ2 pot baseline
CCC(C)c1ccc(NC(=S)NCc2cccnc2)cc1 (centres undefined) | 2.16 | 0.19
COC(=O)c1cc(S(=O)(=O)N2CCN(C3CCCCC3)CC2)c[nH]1 | 0.95 | 0
Cn1c(C(=O)NCc2cccnc2)cc2sccc21 | 0.22 | -0.82
CCOc1ccc2nc(NC(=O)CN3CCOCC3)sc2c1 | 0.11 | -0.98
CCCCN(CCCNC(=O)C1CCN(S(=O)(=O)N2CCOCC2)CC1)c1ccccc1 | 0.21 | -0.31
NS(=O)(=O)c1ccc(NC(=O)CSc2nc3c(c(=O)[nH]2)CCCC3)cc1 | 0.41 | 0.54
CC(OC(=O)Cn1cnc2c1c(=O)n(C)c(=O)n2C)C(=O)NC(C)c1ccc(Cl)cc1Cl (centres undefined) | 2.11 | 0.07
CCOc1ccc(NC(=S)N2CCn3c(nc4ccccc43)C2)cc1 | 1.06 | 0.56
COc1ccc(OCC#CCNC(C)(C)C)cc1 | 0.01 | 0.76
CN(C)c1ccc(C(C(=O)NCC2CCCO2)N(Cc2ccco2)C(=O)c2snc(C(N)=O)c2N)cc1 (centres undefined) | 1.64 | -1.27
CCc1nnc(NS(=O)(=O)c2ccc(NC(=O)COc3ccc(Cl)c(C)c3)cc2)s1 | 1.58 | 0.36
Cn1ncc(Cl)c1C(=O)N1CCOCC1 | 0.02 | 0.9

Overlap with the part before: 2 compounds; new compounds follow.
SMILES | KCNQ2 pot | KCNQ2 pot baseline
CCc1nnc(NS(=O)(=O)c2ccc(NC(=O)COc3ccc(Cl)c(C)c3)cc2)s1 | 1.58 | 0.36
Cn1ncc(Cl)c1C(=O)N1CCOCC1 | 0.02 | 0.9
O=C(NC1(C(F)(F)F)N=C2SCCN2C1=O)c1ccco1 (centres undefined) | 1.11 | 1.42
Cc1cccc(NC(=O)CCN2C(=O)c3ccccc3C2=O)n1 | 1.57 | -2.1
O=C(COC(=O)c1ccc(O)cc1)NC1CCCC1 | 1.29 | 0.04
Cc1ccc(CNC(=O)CNC(=S)N(Cc2ccccc2)Cc2cccnc2)cc1 | 1.05 | -0.07
CCOc1cc(C(=O)Nc2ccccc2N2CCN(S(C)(=O)=O)CC2)cc(OCC)c1OCC | 0.8 | 0.44
O=C(CSc1ccc2c(c1)OCCO2)Nc1ccc(N2CCOCC2)cc1 | 1.28 | 0.7
Cc1ccc(NC(=O)CN(C(=O)N2CCN(C)CC2)S(=O)(=O)c2ccc(C)cc2)cc1 | 0.66 | 0.72
COc1ccc(N2CCN(c3cc(C)c4ccc(O)cc4n3)CC2)cc1 | 0.8 | -0.14
COCCOC(=O)c1[nH]c2c(c1C)C(=O)CC(c1cccs1)C2 (centres undefined) | 0.8 | 0.05
Cc1oc(-c2cccc(F)c2)nc1CN1CCCCC1CCc1ccccn1 (centres undefined) | 0.93 | -0.13
CC(C)NC(=O)CC(=O)N/N=C/c1c(F)cccc1Cl | 1.06 | -1.29
CCCC(NC(=O)CCl)c1ccccc1 (centres undefined) | 0.29 | -1.48
CCN(CC)c1ccc(NC(=S)NC(=O)c2cccs2)cc1 | 0.8 | 1.44
CCC(CC)C(=O)NCCCCc1ccccc1 | 0.27 | -0.94
CC(C)[C@H]1COC(NC2=N[C@@H](C(C)C)CO2)=N1 | 0.78 | 0
Cn1c(SCC(=O)NNC(=S)Nc2ccccc2)nnc1-c1ccncc1 | 0.37 | 0.39
Cc1ccc(O)c(C2=Nc3ccccc3N=C(c3cccc([N+](=O)[O-])c3)C2)c1 | 1.47 | -0.4
Cc1cc2nc(-c3cc(N4CCOCC4)ccc3[N+](=O)[O-])ccn2n1 | 0.02 | 0.61
COc1ccc(NS(=O)(=O)c2ccc(C)c(C(=O)NCC(c3ccco3)N3CCCCC3)c2)cc1 (centres undefined) | 1.47 | -1.54
Cn1cccc1C(=O)C(=O)Nc1ccc(F)c(F)c1 | 0.42 | 0.4
COc1ccc(CCNC(=O)CN(c2ccccc2)S(C)(=O)=O)cc1 | 0.39 | -0.07
CC(C)C(NC(=O)c1ccco1)C(=O)NCc1ccc(C(=O)O)cc1 (centres undefined) | 0.46 | -0.03
Nc1cc(=O)[nH]c(SCC(=O)Nc2ccc(S(=O)(=O)N3CCCCC3)cc2)n1 | 1.8 | -2.3
CC(C)(C)CN1CCNC(=O)C1CC(=O)NCc1cccc(-n2cccn2)c1 (centres undefined) | 1.05 | 0.07
COc1ccc(OC)c(CCNC(=O)CCc2nnc3ccc(N4CCCC4)nn23)c1 | 1.57 | -0.64
CC(C)OC(=O)n1c(=S)oc2ccccc21 | 0.7 | 0.5
CC(C)CC(NC(=O)CC12CC3CC(CC(C3)C1)C2)C(=O)NC1=NCCS1 (centres undefined) | 0.43 | 0.64
CCOc1ccc(NC(=O)NNC(=O)C2CCC(C(C)(C)C)CC2)cc1 (centres undefined) | 1.79 | -0.51
Cc1ccc(-c2nnn(CC(=O)N(CCCO)C(C(=O)NC3CCCC3)c3ccc(Cl)cc3)n2)o1 (centres undefined) | 1.8 | -1.64
O=C(CSc1ccccn1)Nc1ccc(Cl)c([N+](=O)[O-])c1 | 3.99 | 0.99
CC(C)CCNC(=O)C(c1ccncc1)N(CC1CCCO1)C(=O)Cn1nnc(-c2ccc(F)cc2)n1 (centres undefined) | 0.3 | 0.53
COc1ccc(OC)c(CN2CCC(C(=O)N3CCN(c4ccccc4F)CC3)CC2)c1 | 0.3 | -0.62

A different layout for 7 compounds above.
KCNQ2 pot | KCNQ2 pot baseline | structure
1.29 | 0.04 | O=C(COC(=O)c1ccc(O)cc1)NC1CCCC1
0.17 | 1.3 | CC(CC#CCN1CCOCC1)OCCC#N (centres undefined)
0.8 | -0.14 | COc1ccc(N2CCN(c3cc(C)c4ccc(O)cc4n3)CC2)cc1
1.1 | -1.32 | O=C(c1cccs1)N1CCN(S(=O)(=O)c2ccc(F)cc2)CC1
0.89 | -0.07 | COCC(=O)NCCc1nc2ccccc2[nH]1
0.04 | -0.44 | COc1ccc(CN2CCN(C(=O)C3CCC(CNS(=O)(=O)c4ccc(C)cc4)CC3)CC2)c(OC)c1OC (centres undefined)
0.43 | 0.64 | CC(C)CC(NC(=O)CC12CC3CC(CC(C3)C1)C2)C(=O)NC1=NCCS1 (centres undefined)

Screening results (PubChem BioAssay)
